# Screening data as filed in PubChem.
# Calb FLC: C. albicans growth modulation with fluconazole | C. albicans CaCi-2 (fluconazole-resistant clinical isolate) + fluconazole, Alamar Blue growth, 48 h | growth inhibition, % (no concentration beside the values) | 0.57% of 300,000 active | AID 1979;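 active means most replicates above 75%; inconclusive means exactly half above 75%; inactive means most below 75%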;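 further: all wells also contain fluconazole at 8 µg/ml as a sub-toxic cotreatment; 0% = median of DMSO wells and 100% = median of geldanamycin control wells; wells of about 8 µL received 7.5 nL stock; the first replicate is given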
# FGF22 binding: shifts melting point of recombinant human FGF22; Q9HCT0; recombinant FGF22 thermal shift, SYPRO orange fluorescence; percent of sucrose octasulfate shift, DMSO zero; calls only at 9.99 µM; 1.5% of 340,000 active; AID 651658;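 active means melting point raised past a set limit in the mean and every replicate; inconclusive means no clear call; three in four hits are not shown here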
# Target sequence (Q9HCT0 whole entry, looked up): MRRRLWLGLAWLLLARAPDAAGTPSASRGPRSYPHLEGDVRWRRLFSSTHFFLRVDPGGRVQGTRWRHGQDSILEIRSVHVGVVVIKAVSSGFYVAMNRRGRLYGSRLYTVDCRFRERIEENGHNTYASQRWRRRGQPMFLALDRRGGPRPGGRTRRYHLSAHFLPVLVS
# RanGTP-Imp inh: disruptors of Ran-importin-beta complex formation – biochemical, FRET, CFP-Ran, YFP-importin-beta, homogeneous, primary screen; cell-free CFP-Ran/YFP-importin-beta FRET ratio; 1.1% of 300,000 active; inhibition, % (no concentration beside the values);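 active means most replicates above 15%; inconclusive means exactly half above 15%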;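 further: 0% = DMSO wells and 100% = Ran loaded with GDP instead of GTP; wells of about 40 µL received 100 nL stock; the first replicate is given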
# AF4-AF9 inh: MLL-AF4/AF9 protein interaction inhibition. P42568. AlphaScreen, biotin-AF4 peptide binding to FLAG-AF9. inhibition, % at 10 µM. 0.47% of 350,000 active. AID 651704;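 active means every replicate reaching a set inhibition limit, whatever the replicate mean, cut at about 25% in these data; inconclusive means mean inhibition reaches that limit but some replicates miss it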;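 further: 0% = plate neutral control median and 100% = total signal loss; the record names both 10 and 1 µM as test concentration; the first replicate is given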
# Target sequence (P42568 whole entry, looked up): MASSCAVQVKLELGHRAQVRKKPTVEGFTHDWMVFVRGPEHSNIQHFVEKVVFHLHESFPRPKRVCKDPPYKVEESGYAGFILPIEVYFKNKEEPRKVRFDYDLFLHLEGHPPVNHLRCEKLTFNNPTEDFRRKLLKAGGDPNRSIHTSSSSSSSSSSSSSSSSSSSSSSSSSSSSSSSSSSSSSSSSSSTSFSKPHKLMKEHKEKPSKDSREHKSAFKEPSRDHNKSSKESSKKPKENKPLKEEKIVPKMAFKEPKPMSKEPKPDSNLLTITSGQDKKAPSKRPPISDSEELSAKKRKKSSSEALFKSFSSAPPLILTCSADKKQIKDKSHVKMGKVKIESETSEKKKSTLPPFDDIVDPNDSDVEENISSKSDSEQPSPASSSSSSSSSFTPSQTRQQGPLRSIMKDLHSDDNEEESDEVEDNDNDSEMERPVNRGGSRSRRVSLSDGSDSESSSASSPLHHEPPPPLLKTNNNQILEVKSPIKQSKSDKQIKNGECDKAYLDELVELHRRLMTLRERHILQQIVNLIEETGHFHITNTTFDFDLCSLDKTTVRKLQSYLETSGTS
# Beta apoptosis: beta cell apoptosis inhibition | 0.8% of 300,000 active | protection from apoptosis, % (concentration not given with the values) | AID 435005 | INS-1E cytokine-induced death, ATP luminescence, 48 h; percent of positive-control rescue, neutral wells zero;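 active means all replicates at 75% or more, or half of them and the mean; inconclusive means half reach 75% but not the mean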;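 further: 0% = cytokine-treated negative control wells and 100% = positive control rescue; higher means more ATP so stronger rescue from cytokine killing; wells of about 40 µL received 100 nL stock; the first replicate is given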
# T cruzi inh: blocks replication of Trypanosoma cruzi | AID 1885 | inhibition, % (test concentration not listed) | 1.4% of 300,000 active | T. cruzi beta-gal in NIH3T3, luminescence, 90 h;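 active means mean inhibition across valid replicates above about 55%, limit read from the data; inconclusive means mean below that limit but half or more replicates reach it; inactive means mean below it, under half of replicates reach it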;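 further: signal also drops with host cell toxicity which is not excluded here; 0% = plate median of DMSO wells and 100% = zero luminescence signal; higher percent means less beta-gal luminescence so fewer parasites; stock transfer was 50 nL into about 50 µL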
# rRNA inh HTS: selective bacterial rRNA inhibition in E. coli. E. coli WT GFP vs humanized-ribosome RFP mutants, fluorescence, 24 h; active compounds read low; DMSO median 0, no signal -100. GFP signal change (wild-type ribosome), % (test concentration not listed). 1.6% of 350,000 active. AID 720706;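 active means significant combined selectivity score with lowered wild-type GFP, culture density cut under 30%, mutant RFP and density less affected; inactive means any of these conditions unmet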; further: one replicate is shown; some compounds called inactive have numbers as strong as hits
# ALR inh: blocks human ALR sulfhydryl oxidase activity. P55789. purified ALR, DTT oxidation, H2O2 HRP-luminol luminescence. inhibition, % (no concentration beside the values). 3.8% of 290,000 active. AID 485317;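 active means mean and each replicate at 75% or more; inconclusive means only one of the two met; inactive means neither met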;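 further: stock transfer was 7.5 nL into about 7.5 µL; 0% = neutral wells and 100% = wells with inactivated enzyme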
# Target sequence (P55789 whole entry, looked up): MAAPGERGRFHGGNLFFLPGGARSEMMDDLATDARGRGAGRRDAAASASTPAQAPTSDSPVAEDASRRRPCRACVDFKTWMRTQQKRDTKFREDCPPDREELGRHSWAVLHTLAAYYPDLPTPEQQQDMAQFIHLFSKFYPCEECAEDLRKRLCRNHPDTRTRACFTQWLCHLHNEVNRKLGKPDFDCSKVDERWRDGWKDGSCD
# rRNA inh HTS OD600: also measured in rRNA inh HTS; calls as there; OD600 change, %; measured here: OD600 growth;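 optical density of the mix in the first replicate; 0 = DMSO median and -100 = no signal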
# rRNA inh HTS RFP: also measured in rRNA inh HTS; calls as there; RFP signal change, %; measured here: RFP humanized mutant strains;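 first replicate; 0 = DMSO median and -100 = no signal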
# An asterisk follows results filed as active; i = inactive; ? = inconclusive; · = no result given; & = joins results of further samples. Some of the compounds tested (hit frequency here may not be typical).
SMILES	Calb FLC	FGF22 binding	RanGTP-Imp inh	AF4-AF9 inh	Beta apoptosis	T cruzi inh	rRNA inh HTS	rRNA inh HTS OD600	rRNA inh HTS RFP	ALR inh
O=C(NC1CC2CCCC(C1)N2C(=O)Nc1ccccc1)C1CC1 (stereo not drawn)	6	i	2.8	-1.8	1	2	-1	-7	-1.2	-6
Cc1cc(C)n2nc(C(=O)OCC(=O)c3cc(C)n(C)c3C)nc2n1	5	·	-4.0	·	-9	-8	·	·	·	-11
C=C(C)CN1C(=O)C2(OCCO2)c2cc(Br)ccc21	-7	i	0.5	-8.4	1	-8	-36	-52	-12	0
COC(=O)C1=C(C)NC(C)=C(C(=O)OC)C1C(=O)OCc1nc2cc(C(=O)OC)ccc2c(=O)[nH]1	-10	i	-0.2	0.1	-2	-7	7	9	3.3	·
COCCOC(=O)C1=C(C)N=C2SCCC(=O)N2C1c1ccc(OC(=O)c2ccco2)cc1 (stereo not drawn)	18	·	3.6	·	3	-19	·	·	·	-11
COC(=O)c1cccnc1Oc1ccccc1	-5	i	3.2	-2.0	-4	-23	-7	4	-1.1	8
COc1ccc(NC(=O)COc2ccc(C(=O)NCc3cccnc3)cc2OC)cc1	·	i	·	0.2	1	·	·	·	·	-7
Cc1cc(-c2ccc([N+](=O)[O-])cc2)nc2ccccc12	4	i	4.7	-3.4	2	-3	16	13	1.6	2
Cc1cccc(C)c1NC(=O)Nc1cccs1	17	·	3.5	·	-2	-13	·	·	·	10
Cc1ccc(N2CC(C(=O)Nc3nnc(SCC(N)=O)s3)CC2=O)cc1C (stereo not drawn)	1	i	5.2	-2.6	-2	-7	-2	-7	-3.2	-11
CCc1ccccc1NC(=O)[C@@H]1CCC(=O)N1C1OC(=O)c2ccccc21 (stereo partly drawn)	3	i	3.7	7.7	0	3	·	·	·	-7
CC1CCCCN1C(=O)CSc1nc2ncccc2[nH]1 (stereo not drawn)	0	i	-4.0	-2.9	-6	13	10	8	2.7	-1
CS(=O)(=O)Nc1nc2ccccc2[nH]1	6	i	0.0	1.6	-2	-21	23	9	0.3	-3
CC(C)Cc1nc(N2CCN(C(=O)c3ccccc3)CC2)c(C#N)c2c1CCC2	6	·	0.7	·	19	40	·	·	·	-5
COc1cccc(CC(=O)Nc2ccc(-c3csc(C)n3)cc2)c1	-8	i	2.8	-1.3	-2	-10	-28	-27	-4.8	-9
CC(=O)C1=C(O)C(=O)N(c2ccc(Br)cc2)C1c1cccc([N+](=O)[O-])c1 (stereo not drawn)	-10	i	0.4	-2.3	7	-3	-4	2	-2.1	28
Cc1cccc(C)c1OCC(O)Cn1ccnc1C (stereo not drawn)	9	i	3.9	2.5	·	9	5	4	3.6	-18
Cc1cc(S(=O)(=O)Nc2ccc(C(=O)NCC(c3ccccc3)N(C)C)cc2)ccc1F (stereo not drawn)	-5	i	7.7	4.9	-6	20	-2	-13	-1.4	1
CCCCNC(=S)N1CCN(CC)CC1	-16	i	?	-3.3	1	10	7	0	-0.1	-27
Cc1cc(NC(=O)COC(=O)c2ccccc2NCCO)no1	·	i	·	-5.7	-9	·	-4	-6	-1.3	6
COc1cc(/C=C2/OC(=O)c3cc([N+](=O)[O-])ccc32)cc(OC)c1OC	-10	·	-1.1	·	0	-12	·	·	·	-8
O=C(Nc1cccc(Cl)c1N1CCOCC1)c1cccs1	5	i	3.7	0.4	2	19	-14	-38	-12	91*
O=C(O)CN=C(NS(=O)(=O)c1ccc(Cl)cc1)c1ccc(F)cc1	-1	i	-3.7	-2.0	-8	-6	10	13	-3.1	-1
Cc1ccc(C(=O)Nc2c(C)cc(-c3ccc(Cl)cc3)oc2=O)cc1	-11	·	1.5	·	-6	7	·	·	·	1
Cc1onc(-c2ccccc2)c1C(=O)Oc1ccccc1	0	i	-3.3	-0.2	-4	2	-29*	-10*	-3.3*	-13
COc1ccc(Cl)cc1-n1c(=S)sc2c(=O)n(-c3ccc(F)cc3)c(SCC(=O)O)nc21	0	i	2.8	-0.9	·	-5	9	8	1.1	·
COc1ccc(-c2nc(CS(=O)CC(=O)NCc3ccccc3)c(C)o2)cc1OC (stereo not drawn)	38	i	6.4	-1.5	-4	-2	2	3	3.9	99*
Cc1csc(NC(=O)C2CSC3(C)CCC(=O)N23)n1 (stereo not drawn)	-1	i	7.2	-4.4	-8	0	14	12	0.1	-3
CCc1cc[n+](-c2nc3ccccc3nc2C(=C=[N-])C#N)cc1	-4	·	-0.2	·	·	-10	·	·	·	-5
CC(C)P(=O)(c1cccc(C(=O)O)c1)C(C)C	2	·	0.3	·	-3	1	·	·	·	-2
S=c1nc[nH]c2nc[nH]c12	-6	i	7.1	-4.4&0.6	-2&2	?	-1	7	2.0	9
COc1ccccc1/C=C1\SC(=S)N(CCC(=O)NCCCN2CCOCC2)C1=O	5	i	-0.1	2.0	-6	1	-6	-1	8.6	1
COc1ccc(OC)c(CNC(=O)C2CCN(C(=O)N(C)C)CC2)c1	3	·	1.9	·	·	-9	·	·	·	-4
CCOc1ccc(CN(C(=O)c2cc3ccccc3oc2=O)C2CC2)cc1	-22	·	-2.9	·	2	0	·	·	·	-1
O=C(CSc1nccc(=O)[nH]1)N1CCOCC1	1	i	1.7	-1.3	-4	-11	8	11	3.2	-4
Cc1ccc(NC(=S)NC(NC(=O)Cc2cccc3ccccc23)C(Cl)(Cl)Cl)cc1 (stereo not drawn)	11	i	-3.9	-27	64	35	2	7	6.7	-2
COCCNC(=O)CSc1ccc(Cl)cc1	2	i	2.4	-1.6	-7	-17	·	·	·	-4
CCOc1ccc(NC(=O)N2CCC(C(N)=O)(N3CCCCC3)CC2)cc1	4	·	-0.1	·	·	-10	·	·	·	-3
CCN(CC)CCNS(=O)(=O)c1ccc(/C=C/C(=O)O)cc1	0	i	2.0	0.0	-1	-12	28	14	1.7	·
COCCN(Cc1ccccc1)C(=O)c1cccc(S(=O)(=O)N2CCN(c3ccccc3)CC2)c1	2	i	?	1.9	3	22	-4	-8	5.6	-9
CCN(CC)CCn1c2ccccc2c2n[nH]c(=S)nc21	7	i	1.4	4.2	2	37	15	16	-2.2	94*
CSc1ccc(S(=O)(=O)N2c3ccccc3CC2C)cc1 (stereo not drawn)	3	i	-2.5	-4.5	6	17	-20	-23	-3.4	·
Cc1cc(C)n(C(=O)CNC(=O)c2cccc(Br)c2)n1	-3	i	-4.7	-0.2	-13	-12	-1	2	-1.4	-12
NS(=O)(=O)c1ccc(S(=O)(=O)NCCc2ccccc2)cc1	-5	·	2.9	·	13	-7	·	·	·	-11
CCCOc1ccc2oc(=O)c3c(c2c1)CCCN3C(=O)CN1CCCC(C(=O)OCC)C1 (stereo not drawn)	?	·	5.6	·	3	15	·	·	·	·
NNC(=O)c1sc2cc(C(F)(F)F)cnc2c1-c1ccccn1	-26	i	-1.1	0.0	1	2	14	0	1.9	6
CC(=O)Nc1c(NC(C)(C)C)c2ccccc2oc1=O	5	i	?	0.7	-3	-11	5	2	1.8	-7
C[N+](C)(C)CCNC(=O)c1c(O)c2c([nH]c1=O)CCCC2	-10	·	-1.4	·	0	-1	·	·	·	·
CC(=O)N(CCc1ccccc1)Cc1cc2ccc(C)c(C)c2[nH]c1=O	20	i	2.7	-9.0	-2	-4	10	2	1.0	-7
C/C(CS(=O)(=O)c1ccc(Cl)c(Cl)c1)=N/NC(N)=S	-3	i	-0.3	-1.1	6	-12	-6	-7	-3.2	37
Cc1ccc(C)c(-c2csc(N/N=C/c3ccco3)n2)c1	1	i	-5.3	12	4	15	-16	-12	-4.5	4
CC1(C)Cc2ccccc2C(COc2ccccc2)=N1	16	i	4.8	9.0	17	-17	0	-3	0.1	2
COc1ccccc1NC(=O)c1ccc2c(c1)C(=O)N(c1ccccc1OC)C2=O	-23	i	-0.3	0.5	-5	-13	-1	3	-1.1	3
CC(NS(=O)(=O)c1ccc(Br)cc1)C(=O)NC1CCCCCC1 (stereo not drawn)	-5	i	-1.5	-4.2	-7	-1	-4	-14	-1.2	-14
O=C(O)c1ccc(-c2ccc(/C=c3/sc4nc5ccccc5n4c3=O)o2)cc1Cl	6	i	-4.1	-0.9	-8	-11	8	19	-1.4	8
OC(c1ccccc1)(c1ccccc1)c1ncc[nH]1	-2	i	-3.6	-6.5	6	6	2	-8	2.1	·

# (more compounds)
SMILES	Calb FLC	FGF22 binding	RanGTP-Imp inh	AF4-AF9 inh	Beta apoptosis	T cruzi inh	rRNA inh HTS	rRNA inh HTS OD600	rRNA inh HTS RFP	ALR inh
CCCCC/C=C/C1=CC(=O)C[C@H](c2ccc(OC)c(OC)c2)C1	·	i	·	4.5	6	·	-15	-24	-18	0
CCCc1cc(C(=O)Nc2ccc(CC)cc2)no1	-14	i	4.5	0.2	-4	-3	-5	-7	-2.6	·
O=S(=O)(Nc1cccc(-c2ccc(N3CCOCC3)nn2)c1)c1ccc(Cl)c(Cl)c1	11	i	-1.6	-2.4	0	-5	-8	-44	8.0	·
CCC(=O)Nc1ccc(OCc2nnc3c4ccccc4c(C)nn23)cc1	9	i	4.7	0.3	1	2	-2	-2	0.3	0
Cc1cc(C)c(C(=O)N(C)CC2CCCN(CCc3ccccc3F)C2)o1 (stereo not drawn)	-17	i	3.7	0.9	2	45	4	7	2.2	-2
O=C(CCn1c(=O)oc2ccccc21)Nc1cccc([N+](=O)[O-])c1	-2	i	-1.7	-1.7	6	13	13	12	1.6	-5
CCOc1ccc(NC(=O)NNC(=O)c2ccc3ccccc3c2O)cc1	85*	i	?	-1.4	-3	-9	-10	-1	-1.5	-2
COC(=O)/C(C#N)=C/c1c(N2CCCCCC2)nc2c(C)cccn2c1=O	5	i	-1.7	20	·	30	-21	-47	-7.7	·
CC(=O)Nc1sc(C)c(C)c1C(=O)OCC(=O)NCc1ccc(Cl)cc1	·	i	·	-2.4	-5	·	9	12	-1.5	1
O=C(CSCc1ccccc1)NNc1c(F)c(F)cc(F)c1F	-3	i	1.0	-4.3	-11	6	-5	-5	-8.6	·
O=C(c1ccccc1)c1ccc(OCC(O)CN2CCN(Cc3ccccc3)CC2)cc1 (stereo not drawn)	-10	·	4.4	·	0	48	·	·	·	-4
CCS(=O)(=O)N1CCC(C(=O)OCC(=O)c2ccc(Br)cc2)CC1	-3	·	-0.8	·	0	-6	·	·	·	1
Cc1onc(-c2ccccc2Cl)c1C(=O)NCc1ccccc1	-9	i	1.8	-0.7	-14	9	-5	-2	-2.3	·
CCOC(=O)N1CCN(C(=O)CSc2ccc3nnc(-c4ccccn4)n3n2)CC1	-13	i	4.6	-3.9	-7	3	4	7	1.0	·
